StopGo reporter: FMDV 2A StopGo reporter, luciferase signal | human cells with a luciferase reporter of 2A StopGo recoding; control for the full effect not named in the record | Potency, µM (doses to about 57.9 µM), without a hit: at the highest dose signal change, negative = less light | AID 1159524 | 410,000 tested, 1.2% active; active = well fitted falling curve with a large enough effect; inconclusive = small, poorly fitted or top-dose-only effect; inactive = no such curve, though single readings can be large or run the other way; tested in HEK293T cells; further: on the % scale 0 is the no-effect control and ±100 the full control effect; nearly all actives have a fitted effect of over 45% in size; luciferase light after 4 h
NS1 inh: blocks influenza NS1 protein function; 270,000 tested, 0.4% active; Potency, µM (series often up to 46.1 µM), for the others: at the top dose activity, positive = more growth; S. cerevisiae slowed by influenza A NS1, growth recovery by OD600; further: actives are rising curves; nearly all actives have a fitted effect of over 50% in size
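A cell-based growth assay was used: compounds that relieve NS1-induced slow growth of budding yeast raise OD600. Assay medium was yeast nitrogen base with ammonium sulphate and -URA supplement, pH 6.0, with 2% galactose.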
Cruzain inh noDet: cruzain (T. cruzi) inhibition without detergent; P25779; purified cruzain, Z-FR-AMC fluorescence, no detergent; Potency, µM, inactives show max response, negative = inhibition, usual class: inhibitors; 200,000 tested, 2.3% active; active means well fitted curve in the direction sought with a large enough effect; inconclusive means small, poorly fitted or top-dose-only effect, or another doubt; inactive means no such curve, though single readings can be large; an effect the other way counts as inactive or inconclusive;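 further: plate controls were enzyme without inhibitor for no effect and buffer without enzyme for full effect; nearly all actives have a fitted effect of over 40% in size; top concentration of the series not given in the record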
Target sequence (P25779 123-467 limits assumed): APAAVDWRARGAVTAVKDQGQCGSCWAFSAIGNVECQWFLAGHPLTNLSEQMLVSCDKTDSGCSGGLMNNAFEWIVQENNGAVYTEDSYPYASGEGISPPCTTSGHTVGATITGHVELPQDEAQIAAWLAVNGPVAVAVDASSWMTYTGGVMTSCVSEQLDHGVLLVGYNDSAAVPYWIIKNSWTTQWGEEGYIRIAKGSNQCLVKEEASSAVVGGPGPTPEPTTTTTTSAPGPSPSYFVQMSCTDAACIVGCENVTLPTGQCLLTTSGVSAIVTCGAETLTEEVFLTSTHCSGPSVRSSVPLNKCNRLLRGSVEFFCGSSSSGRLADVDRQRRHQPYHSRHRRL
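Detergent-free condition (0.00005% Triton X-100) in acetate buffer pH 5.5 with DTT. 1.5 nM enzyme and compound were pre-mixed 15 min, then 2 uM Z-FR-AMC substrate added; reaction progress from fluorescence change between first and third reads (60 s).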
Cruzain inh Det: blocks cruzain activity in presence of Triton detergent. P25779. Potency, µM, without a hit: max response, negative = inhibition, usual class: inhibitors. purified cruzain, Z-FR-AMC fluorescence, 0.01% Triton. 200,000 tested, 0.43% active; active means well fitted curve in the direction sought with a large enough effect; inconclusive means small, poorly fitted or top-dose-only effect, or another doubt; inactive means no such curve, though single readings can be large; an effect the other way counts as inactive or inconclusive;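 further: plate controls were neutral wells for no effect and buffer without enzyme for full effect; nearly all actives have a fitted effect of over 40% in size; top concentration of the series not given in the record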
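Enzyme 1.5 nM, Z-FR-AMC 2 uM, NaOAc 100 mM pH 5.5, DTT 5 mM, Triton X-100 0.01%; 15 min RT compound preincubation; kinetic ex360/em450, 60 s delta.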
Marburg entry inh: blocks Marburg virus binding to or entry into cells | Marburg virus pseudotyped entry inhibition, cell reporter; control for the full effect not named in the record; about a third of the inactives were read at about 46 µM | Potency, µM (doses to about 37.8 µM), for the others: at the top dose activity change, negative = inhibition, most hits filed as inhibitors | AID 540276 | 300,000 tested, 1.8% active; active = well fitted inhibition curve with a large enough effect; inconclusive = small, poorly fitted or top-dose-only effect, or effect the other way; inactive = flat fitted curve, though single readings scatter; tested in HEK293 cells; about a fifth of its hits are not listed in these tables; further: on the % scale 0 is the no-effect control and ±100 the full control effect; luciferase read-out
RE007 growth inh: less growth of the S. pombe RE007 Vpr strain. S. pombe RE007 Vpr strain, BacTiter-Glo ATP luminescence, 24 h; control for the full effect not named in the record. Potency, µM (highest dose often 92.2 µM), for the others: at the highest dose activity change, negative = less growth. 360,000 tested, 0.21% active. AID 651644; active = well fitted falling curve with a large enough effect; inconclusive = small, poorly fitted or top-dose-only effect; inactive = no such curve, though single readings can be large or run the other way;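 further: on the % scale 0 is the no-effect control and ±100 the full control effect; nearly all actives have a fitted effect of over 50% in size; the assay follows cell death caused by Vpr and the record does not say whether a fall means rescue or toxicity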
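Fission yeast strain RE007, carrying one chromosomally integrated HIV-1 vpr copy, was seeded at OD 0.01 in PMG+AL medium with 23 nL pinned compound. After 24 h at 30 °C and 99% humidity, viability was read by BacTiter-Glo luminescence.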
SARS PLpro yeast: inhibitors of SARS-CoV papain-like protease in yeast; S. cerevisiae expressing SARS-CoV PLpro, growth rescue; control for the full effect not named in the record; Potency, µM (titrated, usually from 32.9 µM), for the others: top-dose activity, positive = growth rescue; 330,000 tested, 0.19% active; AID 485353; further: 0% is about no effect; nearly all actives have a fitted effect of over 55% in size; growth read by luminescence after 48 h
LASV entry inh: inhibitors of Lassa virus binding or cell entry. Lassa virus pseudotype entry inhibition, cell reporter; control for the full effect not named in the record. Potency, µM (series often up to 37.9 µM), for the others: at the highest dose activity change, negative = inhibition, hits mostly inhibitors. AID 540256. 300,000 tested, 1.2% active; active means well fitted inhibition curve with a large enough effect; inconclusive means small, poorly fitted or top-dose-only effect, or effect the other way; inactive means flat fitted curve, though single readings scatter; tested in HEK293 cells; further: on the % scale 0 is the no-effect control and ±100 the full control effect; nearly all actives have a fitted effect of over 50% in size; luciferase read-out
* hit, by the source's call; ? = inconclusive; / = no result given; & = joins results of further samples; [ ] = remark or other dose. Unless noted, the call rests on the fitted dose curve; in most records, active means well fitted rising curve with a large enough effect; inconclusive means small, poorly fitted or top-dose-only effect; inactive means no such curve, though single readings can be large or run the other way. Potency means the concentration at half of the fitted maximal effect. Compounds as they come; any-hit rate near 4.8%.

SMILES	StopGo reporter	NS1 inh	Cruzain inh noDet	Cruzain inh Det	Marburg entry inh	RE007 growth inh	SARS PLpro yeast	LASV entry inh
COc1ccc(N(C(=O)c2snc(C(N)=O)c2N)C(C(=O)NC2CCCC2)c2cc(OC)ccc2OC)cc1 (stereo not given)	?	1%	/	/	-21%[46.1 µM]	-6%	-14%	?
CN1CCC(N(C)C(=O)COc2ccccc2Cl)CC1	-3%	/	/	/	15%	25%	-3%	14%
CCCSc1nnc(NC(=O)Cc2ccc(OC)c(OC)c2)s1	-29%	/	/	/	-10%[46.1 µM]	-9%	0%	0%
[O-]/C(=C(\C(=S)Nc1cccc2ccccc12)[n+]1ccccc1)c1ccc(OC(F)F)cc1	-4%	/	/	/	2%[46.1 µM]	-3%	-3%	-1%
CCc1ccc(O)c(-c2cc(C(=O)Nc3cccnc3)[nH]n2)c1	-15%	3%	/	/	/	-10%	-2%	/
CC1CN(c2ccccc2)NC1=O (stereo not given)	41%[activator]	-4%	/	/	26%[46.1 µM]	43%	0%	27%
CCOC(=O)N1CCN(C(=O)c2ccc(N3C(=O)CCC3=O)cc2)CC1	22%	-4%	-10%	4.2%	-5%	1%	-2%	18%
COc1cccc(N2CCN(C(=O)Nc3ccccc3Cl)CC2)c1	3%	/	/	/	?	12%	0%	?
O=C(c1ccco1)N1CCCC(N2CCN(c3ccccc3F)CC2)C1 (stereo not given)	-16%	-12%	/	/	-1%	-12%	?	?
COC(=O)C1=C(C(=O)OC)[C@@H]2N(C)c3ccccc3[C@@]23C[C@@H](C(=O)OC)N(C(=O)c2cc(C)oc2C)C3=N1	-25%	-2%	/	/	-2%[14.2 µM]	-17%	3%	/
CCN(Cc1ccccc1)C(c1cccc(C#N)c1)c1nnnn1C(C)(C)C (stereo not given)	/	-18%	2%	-9.8%	?	-8%	-11%	-10%
O=C(NNC(=O)C12CC3CC(CC(O)(C3)C1)C2)c1ccccc1O	9%	-5%	/	/	/	-10%	4%	/
COc1ccc2c(CC(=O)O)cc(=O)oc2c1	-10%	5%	/	/	-2%	23%	-2%	/
Cc1ccc(NC2(C#N)C(=O)Nc3ccccc32)cc1C (stereo not given)	-15%	/	/	/	-27%	2%	4%	3%
CC1CC(C)CN(S(=O)(=O)N2CCCC(C(=O)NC(C)c3ccccc3)C2)C1 (stereo not given)	-2%	8%	/	/	/	11%	-4%	/
O=[N+]([O-])c1ccccc1-c1ccc(C(=S)N2CCN(c3ccccc3)CC2)o1	15%	3%	/	/	/	-27%	0%	/
COc1ccccc1CC(=O)c1ccccc1OC	-1%	/	/	/	0%[46.1 µM]	0%	/	/
CC(=O)NC(Nc1nc2c(s1)CCCC2)(C(F)(F)F)C(F)(F)F	0%	11%	-12%	-4.1%	?	-14%	-8%	8%
CN1CCN(Cc2coc3c(Cl)cc(Cl)cc3c2=O)CC1	-3%	8%	/	/	/	-2%	1%	/
Cc1ccc(NC(=O)c2cccc(NC3=NC4CS(=O)(=O)CC4S3)c2)cc1 (stereo not given)	-3%	-8%	/	/	/	15%	0%	/
COc1ccc(C(=O)C2CCCN(Cc3sc(N4CCCC4)nc3Cl)C2)c(OC)c1 (stereo not given)	?	-5%	/	/	/	-19%	1%	/
COc1ccc(C2(C(=O)Nc3ccc(C)cc3)CCOCC2)cc1	-10%	-7%	/	/	17%[46.1 µM]	-5%	0%	/
CCOC(=O)CSc1nc2sc3c(c2c(=O)n1-c1ccccc1)CCN(C)C3	-21%	23%	/	/	/	-17%	0%	/
CCOC(=O)N1CCN(C(=O)COc2ccc3oc4c(c3c2)CCCC4)CC1	-20%	/	/	/	-3%	-9%	-12%	10µM*
CC1Sc2ccc(S(=O)(=O)NCCc3ccccc3)cc2NC1=O (stereo not given)	53%[activator]	19%	/	/	/	-17%	-1%	/

More records follow:
SMILES	StopGo reporter	NS1 inh	Cruzain inh noDet	Cruzain inh Det	Marburg entry inh	RE007 growth inh	SARS PLpro yeast	LASV entry inh
Cn1ccc(C(=O)N/N=C/c2cccnc2)n1	10%	18%	/	/	2%[46.1 µM]	1%	-3%	22%
COc1ccccc1CCC(=O)N(C)CC(=O)Nc1ccc(F)cc1	20%	-8%	/	/	-29%[46.1 µM]	-8%	0%	0%[46.1 µM]
Cc1cccc(C#Cc2ccccc2)n1	37%&24%&27%[activator]	-8%	-6%&6%	-1.6%&0.0%	?	-13%	/	?
CCOc1ccc2nc(NC(=O)CSc3nc4c(c(=O)n(C)c(=O)n4C)n3CC)sc2c1	-12%	-11%	?	0.9%	-5%	-8%	-3%	15%
Cc1nnc(N)nc1C	-19%	7%	-6%	0.4%	-6%	13%	10%	14%
Cc1cc(C)n(C(=O)CNC(=O)c2ccc(C(C)(C)C)cc2)n1	66%[activator]	2%	/	/	/	12%	4%	/
COc1ccccc1NS(=O)(=O)c1cccc(NC(=O)c2cncc(Br)c2)c1	-5%	/	/	/	3.5µM*	14%	2%	?
COc1ccc(-c2csc(N3CCOCC3)n2)cc1OC	25%	1%	-1%	-0.7%	-12%	1%	-3%	?
CCc1ccccc1N1CC(c2nc3ccccc3n2CCCOc2ccc(Cl)cc2)CC1=O (stereo not given)	27%	/	15%	-12%	?	/	/	?
COC(=O)c1ccc(Cn2c(O)c(N=NC(N)=S)c3ccccc32)o1	-22%	7%	/	/	/	22%	-3%	/
O=C(Nc1nc(-c2cccnc2)cs1)c1ccccc1F	50%[activator]	/	/	/	?	-17%	1%	?
Cc1ccc2nc(SCC(=O)Nc3cccc4ccccc34)nc(=O)n2c1	-10%	/	/	/	2%	-4%	1%	15%
Cc1ccc(OCCn2ccc(=O)[nH]c2=O)cc1C	18%	1%	11%	4.0%	?	-8%	6%	22%
CCN(CC)CCN1C(=O)C(O)=C(C(=O)c2cc3ccccc3o2)C1c1cccnc1 (stereo not given)	-14%	3%	-1%	-2.6%	?	8%	-4%	1%
C=CCNC(=S)N/N=C(\C)c1cc(OC)c(OC)c(OC)c1	-8%	-4%	-4%	-7.1%	4%	4%	-10%	-1%
Cc1ccc(-c2c3c(=O)n(C)c(=O)n(C)c3cn2-n2cnnc2)cc1	?	?	13µM*	10µM*	-14%	1%	-9%	-8%
COc1ccc(-n2nc(C(=O)NCC(=O)NCCC3=CCCCC3)c3ccccc3c2=O)cc1OC	-18%	15%	/	/	-14%[46.1 µM]	3%	1%	?
COc1ccc2oc(=O)cc(CN3CCN(c4ccccc4F)CC3)c2c1	?	/	-8%	0.5%	0%[46.1 µM]	/	/	?
COc1ccc2c(c1)OCC(O)(c1ccccc1)C2=O (stereo not given)	-4%	/	/	/	-1%[46.1 µM]	-6%	/	2%[46.1 µM]
O=[N+]([O-])c1cccc2c[nH]nc12	9%	/	-14%	-19%	-22%	/	/	/
COc1ccccc1NC(=O)CSc1nc2sc(C)c(C)c2c(=O)n1C	-22%	-4%	/	/	-1%[46.1 µM]	2%	7%	-5%[46.1 µM]
Cc1ccc(CNC(=O)CN(c2ccc(C(C)C)cc2)S(=O)(=O)c2c(C)n[nH]c2C)cc1	-23%	/	?	-9.6%	?	/	/	?
O=S1(=O)CCN2C=Nc3sc4c(c3C2=N1)CCCC4	-16%	-12%	6%	0.4%	7%	-1%	3%	-9%
CSc1ccccc1OCc1cc(C(=O)NC2CCOC2)no1 (stereo not given)	22%	-7%	/	/	/	5%	-3%	/
COc1ccc(NC(=O)c2ccccc2C)cc1	2%	-13%	/	/	?	-8%	2%	?

4 entries already listed, sorted by number of heavy atoms, smallest number first.
SMILES	StopGo reporter	NS1 inh	Cruzain inh noDet	Cruzain inh Det	Marburg entry inh	RE007 growth inh	SARS PLpro yeast	LASV entry inh
COc1ccccc1CC(=O)c1ccccc1OC	-1%	/	/	/	0%[46.1 µM]	0%	/	/
Cc1ccc2nc(SCC(=O)Nc3cccc4ccccc34)nc(=O)n2c1	-10%	/	/	/	2%	-4%	1%	15%
[O-]/C(=C(\C(=S)Nc1cccc2ccccc12)[n+]1ccccc1)c1ccc(OC(F)F)cc1	-4%	/	/	/	2%[46.1 µM]	-3%	-3%	-1%
COC(=O)C1=C(C(=O)OC)[C@@H]2N(C)c3ccccc3[C@@]23C[C@@H](C(=O)OC)N(C(=O)c2cc(C)oc2C)C3=N1	-25%	-2%	/	/	-2%[14.2 µM]	-17%	3%	/

Continued.
SMILES	StopGo reporter	NS1 inh	Cruzain inh noDet	Cruzain inh Det	Marburg entry inh	RE007 growth inh	SARS PLpro yeast	LASV entry inh
CCOC(=O)C1CCN(C(C(=O)NC2CCCC2)c2ccc(C)cc2)CC1 (stereo not given)	-5%	2%	7%	7.4%	/	-2%	-8%	/
COC(=O)c1ccccc1NC(=O)c1ccc(-c2cccc(Cl)c2)o1	17%	-18%	?	-2.7%	19%	0%	-12%	26%
CCN1CCN(CC(O)COc2ccc(C)c(C)c2)CC1 (stereo not given)	3%&0%	-3%	9%	-1.0%	?	10%&5%	2%	-15%&3%
O=C(CSc1nc2ccccc2c(=O)n1-c1ccc(OC(F)F)cc1)NCc1cccs1	-20%	14%	-8%	6.3%	-5%	-8%	11%	29%
CN(C)/C=C(/C(=O)c1ccc(Cl)cc1)S(=O)(=O)c1ccc(Cl)cc1	16%	0%	?	0.4%	2%	-7%	-4%	0%
COc1ccc(C)cc1NS(=O)(=O)c1ccc2c(c1)n(C)c(=O)n2C	66%&36%[activator]	3%	?	-0.2%	?	15%	0%	3%
CC(=O)c1cccc(NC(=O)c2sc3nc4n(c(=O)c3c2C)CCCCC4)c1	-8%	-3%	/	/	3%[46.1 µM]	-1%	0%	?
Cc1ncc(CO)c(/C=N/NC(=S)Nc2ccc(F)cc2)c1O	0%	11%	-4%	-11%	14µM*	-5%	5.6µM*	?

Compound activity as filed in PubChem.
